PKD1 kinase inh = PKD1 (human) kinase inhibition; PKD1 kinase fluorescence polarization assay; inhibition, %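 (about 10 µM by stock and volumes)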; Q15139; 200,000 tested, 0.056% active; AID 797;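 active means inhibition of 50% or more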;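 further: controls were vehicle for no effect and a reference inhibitor for full effect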
RGS16-Gao = modulates binding between human RGS16 and Galphao; bead-based flow cytometry RGS16-Galphao binding, fluorescence; actives lie on both sides; AID 1441; O15492+P09471; binding response (% of control), % at 10 µM; 220,000 tested, 0.38% active;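 active means below 25% or above 175%, edge rows of some plates excepted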;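 further: Galphao activated by GDP with aluminum fluoride before binding; 100% = wells without compound and 0% = beads without RGS; some results beyond the cut were filed as inactive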
Target sequence (O15492 whole entry, looked up): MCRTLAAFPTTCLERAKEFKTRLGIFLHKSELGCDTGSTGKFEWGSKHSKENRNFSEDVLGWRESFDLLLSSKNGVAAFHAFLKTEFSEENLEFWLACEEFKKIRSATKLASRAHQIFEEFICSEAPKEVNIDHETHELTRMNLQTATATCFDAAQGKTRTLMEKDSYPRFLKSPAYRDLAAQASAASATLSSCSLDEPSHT
Target sequence (P09471 whole entry, looked up): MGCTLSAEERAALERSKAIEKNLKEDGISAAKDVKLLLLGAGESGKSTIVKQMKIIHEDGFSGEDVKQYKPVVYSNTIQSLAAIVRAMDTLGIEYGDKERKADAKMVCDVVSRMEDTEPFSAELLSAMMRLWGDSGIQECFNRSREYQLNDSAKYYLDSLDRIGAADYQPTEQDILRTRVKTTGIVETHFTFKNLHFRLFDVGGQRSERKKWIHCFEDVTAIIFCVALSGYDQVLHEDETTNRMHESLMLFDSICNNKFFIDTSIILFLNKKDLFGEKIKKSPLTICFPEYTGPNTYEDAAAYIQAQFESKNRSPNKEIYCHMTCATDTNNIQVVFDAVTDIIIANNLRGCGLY
HSV replic up = increases HSV replication in cells; HSV replication augmentation in cells, fold increase; maximum fold increase; 220,000 tested, 0.005% active;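 active means peak rise of 1.5-fold or more in the series; tested in PC3 cells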;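 further: first round at 10 µM; read as green reporter fluorescence; hits show the peak of a series up to 25 µM; 1 = signal of infected wells without compound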
GALR2 agonist = agonists of human galanin receptor 2 (GALR2) | AID 803 | activation, %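 (tested at 5 µM)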 | 140,000 tested, 0.48% active | GALR2-expressing cells, agonist activation read-out;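 active means above mean plus 3 SD of all compounds, about 5% in these data, not always enough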;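 further: 0% = vehicle buffer wells and 100% = reference agonist at full effect; tested in CHO reporter cells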
Target sequence (O43603 whole entry, looked up): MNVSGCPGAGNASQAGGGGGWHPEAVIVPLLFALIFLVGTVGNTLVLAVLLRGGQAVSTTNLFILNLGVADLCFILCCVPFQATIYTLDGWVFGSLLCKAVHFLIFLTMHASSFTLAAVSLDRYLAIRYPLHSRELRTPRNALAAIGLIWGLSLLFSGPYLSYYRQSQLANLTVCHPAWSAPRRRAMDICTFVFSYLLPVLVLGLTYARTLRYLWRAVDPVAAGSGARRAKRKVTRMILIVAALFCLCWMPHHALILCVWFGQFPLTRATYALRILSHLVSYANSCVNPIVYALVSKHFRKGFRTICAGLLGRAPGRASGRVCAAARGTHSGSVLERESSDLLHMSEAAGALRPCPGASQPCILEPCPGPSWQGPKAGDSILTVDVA
Insulin prom inh = TRM-6 insulin promoter activity inhibition; TRM-6 cells (human fetal islet line), insulin promoter-eGFP reporter, imaging; reporter expression induced with tamoxifen; inhibition, % at 2 µM; 130,000 tested, 0.9% active; AID 1273;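 active means inhibition above the mean plus 3 SD, with well images judged a real hit on visual review, cut at about 60% in these data, passing the limit was not always enough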
Insulin prom inh cell count = second read-out of Insulin prom inh, no call of its own (marks repeat the call); normalized cell count, %; measured here: cell count, toxicity; reference of the scale not given here;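 cells exposed to compound for 48 h; stained nuclei by imaging scaled within each plate; lower means fewer cells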
HSV replic up primary fold = also measured in HSV replic up; calls as there; fold increase; compound at 10 µM; measured here: primary screen fold increase 10 uM; tested in PC3 cells;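 GFP signal in the first replicate; 1 = infected wells without compound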
Starred values were filed as active, the others as inactive; i = inactive; · = no result given; & = joins results of further samples.

SMILES	PKD1 kinase inh	RGS16-Gao	HSV replic up	HSV replic up primary fold	GALR2 agonist	Insulin prom inh	Insulin prom inh cell count
Cc1occc1C(=O)Nc1ccc2ccccc2c1	-5	103	i	0.95	-1.9	7	166
O=C(N/N=C/C=C/c1ccc([N+](=O)[O-])cc1)c1cccs1	3	75	i	1.1	-0.8	·	·
CN(C)/C=C1\SC(=S)N(N2C(=O)C3C4C=CC(C4)C3C2=O)C1=O (configuration not stated)	-6	105	i	0.95	·	·	·
C=CCNCCOCCOc1ccc(C)cc1Br	-12	112	i	0.97	-0.1	-61	131
O=S(=O)(c1cccc(F)c1)N1CCc2sccc2C1c1ccc(OC(F)(F)F)cc1 (configuration not stated)	·	114	i	1.2	·	·	·
Cc1ccc(Nc2nc(C(=O)NCCCN3CCOCC3)cs2)cc1	-19	104	i	0.89	-2.9	-27	109
COC(=O)Cn1cnc2sc3c(c2c1=O)CCCC3	1	108	i	0.82	·	·	·
COC(=O)C1(NC(=O)NC2CCCCC2)CCCCC1	·	101	i	1	·	·	·
CNC(=O)C1CC(=O)N(Cc2ccccc2)C(=Nc2ccc(OC)cc2)S1 (configuration not stated)	19	102	i	0.97	0.9	-54	98
CC(=O)N1CCc2ccc(S(=O)(=O)N3CCN(C)CC3)cc21	-14	112	i	0.85	-1.7	-27	120
NC(=O)CSc1nc(C2CC2)nc2sc3c(c12)CCCC3	-2	114	i	0.95	·	·	·
CCN(CC(=O)Nc1ccc2c(c1)OCCO2)C(=O)/C=C/c1ccccc1	-5	113	i	0.88	·	20	73
N#CCSc1nnc(-c2cccnc2)n1-c1ccccc1	0	117	i	0.86	0.1	0	121
Cc1ccc2c(Cl)cc(Cl)c(OCC(=O)NC3CCS(=O)(=O)C3)c2n1 (configuration not stated)	-5	102	i	0.97	·	-150	93
Cc1ccc(C)n1NC(=O)c1ccc(Cl)cc1Cl	-4	96	i	1	-1.3	54	120
CC(=O)N1CCN(S(=O)(=O)c2cccc(C(=O)Nc3ccccc3N3CCOCC3)c2)CC1	-1	87	i	1	·	-43	84
Cc1cc(C)c(C#N)c(N2CCSCC2)n1	0	102	i	0.97	-1.6	-7	92
Cc1ccc(C)c(C(=O)CCC(=O)NCc2ccc(Cl)cc2)c1	-12	107	i	1.1	·	27	154
COCCNC(=O)/C(C#N)=C\c1ccc(CNS(=O)(=O)c2ccccc2)o1	-1	103	i	0.97	·	·	·
COCCN1C(=O)C(=O)/C(=C(/O)c2ccc(S(=O)(=O)N3CCOCC3)cc2)C1c1ccc(C(C)C)cc1 (configuration not stated)	-1	103	i	1	-2.1	4	102
COc1ccc(CCN2C(=O)c3[nH]nc(-c4ccccc4O)c3C2c2cccc(O)c2)cc1OC (configuration not stated)	4	109	i	0.86	-0.6	-35	71
COC(=O)Cc1cc(=O)[nH]c(/N=C(\N)Nc2ccc(C)cc2)n1	-8	102	i	0.86	0.0	-407	39
O=C(NNc1ccccn1)C(c1ccccc1)c1ccccc1	3	100	i	0.92	·	-17	108
Cc1ccc(-c2nc(N/N=C/c3cccnc3)c3ccccc3n2)cc1	-8	92	i	0.84	0.2	65	112
Cc1ccc(N(C(=O)CC2NC(=O)NC2=O)C2(C(=O)NC3CCCC3)CCCCC2)cc1 (configuration not stated)	-4	104	·	·	-1.5	·	·
Cc1ccc(CNc2nc3ccccc3n3nnnc23)cc1	-18	110	i	1	2.3	-5	105
Cc1nc(/C=C/c2ccccc2)[nH]c(=O)c1-c1ccccc1	-4	97	i	0.62	0.5	-36	70
O=C(CSc1n[nH]c(=O)[nH]c1=O)c1ccc([N+](=O)[O-])cc1	·	93	i	0.93	·	·	·
CCSc1ccc(C(=O)Nc2cccc(C)n2)cc1[N+](=O)[O-]	-4	97	i	1	0.0	-12	127
O=C(Nc1cccnc1)c1cc(-c2ccc(Br)cc2)on1	-8	146	i	0.81	-1.8	·	·
O=C(Nc1sc2c(c1C(=O)O)CCC2)c1ccccc1	-1	102	i	1	-0.7	48	29
CCN(CC)S(=O)(=O)c1ccc(C)c(NC(=O)CNCCN(C(C)C)C(C)C)c1	-4	99	i	0.91	·	20	137
Cc1cc(CNC(=O)c2cccc([N+](=O)[O-])c2)c2ccccc2n1	3	93	i	1	·	57	114
Cc1c(O)ccc(C(=O)COc2ccc(F)cc2)c1O	-2	102	i	0.98	-2.6	-44	95
CC1CN/C(=C\C(=O)c2ccccc2)C(=O)N1 (configuration not stated)	-3	42	i	0.91	-0.4	-5	228
Cc1c(O)c(=O)ccn1C	1	68&91	i	0.62	-1.6	14	131
Cc1nn(C)cc1C(C)NC(=O)c1cc(COc2c(F)cccc2F)on1 (configuration not stated)	4	96	i	0.96	·	·	·
O=C(CN1CCN(Cc2ccccc2)CC1)Nc1ccc2c(c1)CCC2	1	94	i	0.88	·	21	158
O=C1NCCCC1C(=O)N/N=C/c1ccccc1O (configuration not stated)	-3	101	i	0.94	0.9	-47	122
COc1ccc(CNc2oc(COc3ccccc3)nc2C#N)cc1	1	108	·	·	-2.0	-15	101
Cn1c(=O)c2c(ncn2CCNC2=NCCCCC2)n(C)c1=O	-2	105	i	1	·	·	·
CCC(CO)Nc1ccc(-c2nn(C)c(=O)c3ccccc23)cc1[N+](=O)[O-] (configuration not stated)	-8	113	i	0.95	·	·	·
CCOC(=O)Cn1c(=O)n(C2CCCC2)c(=O)c2ccccc21	-2	97	i	1	-0.8	-39	117
CC1CC(N(C(=O)c2ccc(Cl)cc2)c2ccccc2)c2ccccc2N1C(=O)c1ccco1 (configuration not stated)	-1	116	i	1	-1.2	-129	91
Cc1ccc(NC(=O)COC(=O)Cc2csc(-c3ccc(Cl)cc3)n2)cc1C	-6	115	i	1	-1.0	-13	63
Cc1cc2ccccc2n2c(SCC(=O)NCC3CCCO3)nnc12 (configuration not stated)	2	90	i	0.92	·	38	106
O=C(COC(=O)C1=COCCO1)NCc1ccc(Cl)cc1	-1	123	i	0.94	·	-30	101
Cc1nn(C)c(C)c1S(=O)(=O)NC1CCCc2ccccc21 (configuration not stated)	10	108	i	0.96	0.1	·	·

7 compounds already listed, ordered by molecular weight, high to low.
SMILES	PKD1 kinase inh	RGS16-Gao	HSV replic up	HSV replic up primary fold	GALR2 agonist	Insulin prom inh	Insulin prom inh cell count
CC1CC(N(C(=O)c2ccc(Cl)cc2)c2ccccc2)c2ccccc2N1C(=O)c1ccco1 (configuration not stated)	-1	116	i	1	-1.2	-129	91
Cc1ccc(NC(=O)COC(=O)Cc2csc(-c3ccc(Cl)cc3)n2)cc1C	-6	115	i	1	-1.0	-13	63
Cc1nn(C)cc1C(C)NC(=O)c1cc(COc2c(F)cccc2F)on1 (configuration not stated)	4	96	i	0.96	·	·	·
Cc1cc2ccccc2n2c(SCC(=O)NCC3CCCO3)nnc12 (configuration not stated)	2	90	i	0.92	·	38	106
O=C(CN1CCN(Cc2ccccc2)CC1)Nc1ccc2c(c1)CCC2	1	94	i	0.88	·	21	158
Cn1c(=O)c2c(ncn2CCNC2=NCCCCC2)n(C)c1=O	-2	105	i	1	·	·	·
O=C(COC(=O)C1=COCCO1)NCc1ccc(Cl)cc1	-1	123	i	0.94	·	-30	101

The main list resumes, starting three compounds before the break.
SMILES	PKD1 kinase inh	RGS16-Gao	HSV replic up	HSV replic up primary fold	GALR2 agonist	Insulin prom inh	Insulin prom inh cell count
Cc1cc2ccccc2n2c(SCC(=O)NCC3CCCO3)nnc12 (configuration not stated)	2	90	i	0.92	·	38	106
O=C(COC(=O)C1=COCCO1)NCc1ccc(Cl)cc1	-1	123	i	0.94	·	-30	101
Cc1nn(C)c(C)c1S(=O)(=O)NC1CCCc2ccccc21 (configuration not stated)	10	108	i	0.96	0.1	·	·
Cc1cc(N2CC(C)OC(C)C2)n2cc(-c3ccccc3)nc2n1 (configuration not stated)	-6	104	i	1.1	·	27	78
CN(CCc1ccccn1)Cc1ccc(Cl)cc1	-1	90	i	0.93	-1.1	·	·
CCCn1nc(NS(=O)(=O)c2ccccc2)c2cc3cc(C)ccc3nc21	-1	109	i	1	-2.0	-64	112
Cc1ccc2c(c1)C1CCCC3C1N2CC(=O)N3Cc1ccccc1 (configuration not stated)	0	114	i	1	-0.4	-26	63
COc1ccc(OCCNC(=O)C(Cc2c[nH]c3ccccc23)NC(C)=O)cc1 (configuration not stated)	-2	98	i	0.93	·	-33	91
CCOC(=O)CC(NC(=O)Cc1ccccc1)c1ccccc1Cl (configuration not stated)	4	100	i	1	-0.1	-56	103
O=C(Nc1cccnc1Cl)c1cccnc1Cl	-1	-127	i	1.1	1.6	-25	121
CC(C)Oc1cccc(C(=O)NC(=S)NCc2cccnc2)c1	-5	107	i	0.94	-0.4	-19	116
Cc1nn(-c2ccccc2)c(C)c1/C=N/NC(=O)CSc1nnc(SCc2cccc3ccccc23)s1	-6	99	i	0.93	-1.2	0	50
CCNC(=S)NNC(=O)Cn1nc(C)cc1C	1	98	i	0.99	-1.8	·	·
O=C(Nc1cccnc1)c1ccc(CN2CCc3ccccc3C2)cc1	3	101	i	0.86	-0.3	·	·
Cc1cc2cc3c(N)[nH]nc3nc2cc1C	9	96	i	0.77	-1.6	-2	93
CC(=O)Nc1ccc(-c2cc(C(=O)O)c3ccccc3n2)cc1	·	102	i	0.87	·	·	·
COCc1cc(=O)[nH]c(/N=C(\N)Nc2ccc(C)cc2C)n1	-8	99	i	0.94	·	·	·
CCN(CC(=O)Nc1cccc(OC)c1)CC(=O)Nc1ccc(C)cc1Cl	-8	114	i	0.87	·	-64	172
COCc1ccc(C(=O)NC(C)c2cnn(-c3ccccc3C)c2C)o1 (configuration not stated)	-5	100	i	0.98	·	·	·
Cc1cc(C)c(C#N)c(SCc2ccccc2[N+](=O)[O-])n1	-4	66	i	1.1	-2.4	·	·
O=C(Nc1cccc(-c2cn3cccnc3n2)c1)c1ccco1	5	97	i	1	-2.7	-18	115
COc1ccc(OCCn2cc(/C(N)=N/O)c3ccccc32)cc1	-1	99	i	0.81	-1.6	-29	49
O=C(CCC(=O)Nc1nnc(C2CCCCC2)s1)NCc1ccccc1	·	108	i	0.96	·	·	·
COc1ccc(N=Cc2cc3c(cc2O)OC(N)=C(C#N)C3c2ccccc2)cc1 (configuration not stated)	2	103	i	1.2	1.2	·	·
CCOC(=O)CSc1n[nH]c(NC(C)=O)n1	-2	104	i	1.1	·	·	·
CC(/C=N\NC(=O)CN1CCN(Cc2ccccc2)CC1)=C\c1ccco1	2	106	i	1.1	-1.1	-10	108
COc1ccc(/C=N/NC(=O)CCSc2nc3ccccc3s2)cc1	-3	100	i	0.85	-0.2	-15	98
COC(CNC(=O)c1cccc(-n2c(=S)[nH]c3cc(Cl)ccc3c2=O)c1)OC	0	103	i	0.95	·	29	131
CC1(C)OC2OC(C(=O)N/N=C/c3cc(Br)ccc3O)C3OC(C)(C)OC3C2O1 (configuration not stated)	0	86	i	0.92	-2.3	-13	124
CCOC(=O)c1c(C)n(C)c2cc(CN(C)C)c(O)c(S(=O)(=O)c3ccccc3)c12	-4	113	i	1.1	·	0	63
Cc1cc(C)c2nc(NNC(=O)c3ccc(S(=O)(=O)N4CCCCC4)cc3)sc2c1	6	108	i	0.89	0.9	17	125
CSc1ncccc1C(=O)Nc1nc2ccc(F)cc2s1	2	105	i	0.85	·	·	·
O=C1CSC(=S)N1/N=C/C=C/c1ccccc1	-5	130	i	0.74	0.0	17	89
CCOC(=O)c1c(C)c(C(=O)Nc2cc(OC)ccc2OC)c(C)n1CC	-5	104	i	0.65	0.6	·	·
Cc1ccc(NS(=O)(=O)c2ccc(NC(=O)c3cccs3)cc2)cc1	-6	104	i	0.96	-1.8	23	104
CCOc1ccc2nc(SC3CC(=O)N(c4ccc(C)cc4)C3=O)sc2c1 (configuration not stated)	-2	87	i	0.97	-0.6	·	·
COc1ccc(-n2c(=O)c3c4c(sc3n(CC(=O)NCc3ccco3)c2=O)CCC4)c(OC)c1	-7	93	i	0.84	-1.2	46	54
Cc1ccc(S(=O)(=O)Oc2cccc(N3C(=O)C4CC=CCC4C3=O)c2)cc1 (configuration not stated)	1	108	i	1	-0.8	39	57
Cc1cccc(NC(=S)N(CCCN2CCOCC2)Cc2cn(C)c3ccccc23)c1	-5	147	i	0.57	-0.9	47	41
COc1ccc(-n2nc3ccc(NS(C)(=O)=O)cc3n2)cc1Cl	2	100	i	0.85	-0.9	-3	159

Screens: PubChem, several laboratories
